# High-throughput results as filed in PubChem.
# Vaccinia Venus = vaccinia inhibition (Venus reporter) | Vaccinia virus Venus reporter expression, fluorescence | Potency, µM (doses to about 36.5 µM), for inactives: at the top dose activity change, negative = inhibition, hits mostly inhibitors | hit rate 0.46% among 330,000; active means well fitted inhibition curve with a large enough effect; inconclusive means small, poorly fitted or top-dose-only effect; inactive means no such curve, though single readings can be large or run the other way; tested in A549 cells; note: nearly all actives have a fitted effect of over 30% in size; inactives centre near -10
# VACV mCherry inh = vaccinia inhibition (mCherry reporter). AID 720579. Vaccinia virus mCherry reporter infection, fluorescence; about a quarter of the inactives have no number. hit rate 0.63% among 310,000. Potency, µM (titrated, usually from 36.5 µM), without a hit: at the top dose activity change, negative = inhibition, hits mostly inhibitors; active = well fitted inhibition curve with a large enough effect; inconclusive = small, poorly fitted or top-dose-only effect; inactive = no such curve, though single readings can be large or run the other way; tested in A549 cells; note: nearly all actives have a fitted effect of over 35% in size; inactives centre near -10
# Starred values were filed as active, the others as inactive; i = inactive; ? = inconclusive; . = no result given; [ ] = remark or other dose. % is set by controls: 0 for no effect and ±100 for the full control effect; potency is the fitted concentration of half-maximal effect. Compounds were not picked by outcome. About 0.86% of those tested had a hit in this group.
SMILES,Vaccinia Venus,VACV mCherry inh
CCS(=O)(=O)c1ccc2c(c1)N(S(C)(=O)=O)CC(C(=O)NN)O2 (stereo not given),-19%,-7%
CCCc1nn2c(=O)cc(COC(=O)c3ccccc3NC(=O)COc3ccccc3)nc2s1,-4%,-15%
CN(C)C(=O)Cn1nc(-c2ccccc2)c2ccccc2c1=O,2%,-3%
Cc1cc(=O)[nH]c(SCC(=O)Nc2ccc(C)c(S(=O)(=O)N3CCCCC3)c2)n1,2%,2%
CC(C)NC(=O)c1ccc(NC(=O)N2CCCCc3ccccc32)cc1,-8%,-7%
CC(C)n1c(SCC(=O)N2CCCCC2)nc2c1c(=O)n(C)c(=O)n2C,2%,10%
O=C(COC(=O)C12CC3CC(CC(C3)C1)C2)NNC(=O)c1ccccc1,-6%,i
COc1cc(CCC(=O)OCC(=O)N(CC(C)C)C2CCS(=O)(=O)C2)cc(OC)c1OC (stereo not given),1%,-8%
COc1ccc(NC(=O)CNC(=O)Cc2ccccc2)cc1,-6%,-13%
COc1cc(NC(=O)Cc2ccccc2)cc(OC)c1,-18%,-9%

# Two entries from above in a different format.
# Below each SMILES: Vaccinia Venus	VACV mCherry inh
- COc1cc(CCC(=O)OCC(=O)N(CC(C)C)C2CCS(=O)(=O)C2)cc(OC)c1OC (stereo not given)
    1%	-8%
- CCS(=O)(=O)c1ccc2c(c1)N(S(C)(=O)=O)CC(C(=O)NN)O2 (stereo not given)
    -19%	-7%

# (continued)
SMILES,Vaccinia Venus,VACV mCherry inh
CCCc1nn2c(=O)cc(CSCC(=O)Nc3cccc(OC)c3)nc2s1,0%,-7%
COCC(C)NC(C(=O)Nc1cccc(C(C)=O)c1)c1ccccc1 (stereo not given),-1%,10%
COc1ccc(N2CCN(S(=O)(=O)c3ccc4oc(=O)c5ncn(C)c5c4c3)CC2)cc1,-3%,-9%
N#Cc1c(-c2ccc3c(c2)OCO3)csc1N,-29%,?
CCOC(=O)C1(CCc2ccccc2)CCN(Cc2cccc3cnccc23)CC1,-9%,-18%
CCN1CCC(O)(C(C(=O)O)c2ccccc2)CC1 (stereo not given),-3%,-4%
Cc1ccc(C)c2c1[nH]c1ccc([N+](=O)[O-])cc12,-29%,-2%
O=C1C2C(C(=O)N1/N=C/c1cccc([N+](=O)[O-])c1)C1C=CC2C12CC2 (stereo not given),-5%,-12%
O=C(O)c1ccc(N2CC3CC(C2)c2cccc(=O)n2C3)c(NS(=O)(=O)c2cccc(C(F)(F)F)c2)c1 (stereo not given),-8%,i
Cc1ccc(C(=O)COC(=O)COc2ccccc2C)cc1,-11%,-16%
COc1ccc(/C(N)=N/OC(=O)CN(C)S(=O)(=O)c2ccc(C)cc2)cc1,-17%,i
COc1ccc2c(c1)OC(=O)CC2c1ccccc1OC (stereo not given),-21%,i
CN(C)S(=O)(=O)c1cccc(NC(=O)COC(=O)c2ccc([N+](=O)[O-])o2)c1,-9%,-18%
Cc1c(NC(=O)CCc2ccc(S(=O)(=O)N3CCOCC3)cc2)c(=O)n(-c2ccccc2)n1C,-12%,-2%
CC(C)(C)CC(=O)NCC(c1ccc2c(c1)OCO2)N1CCN(c2ccccc2)CC1 (stereo not given),0%,-2%
CCOc1ccc(NC(=O)c2cnn(-c3ccc(C)c(C)c3)c2C2CCN(C(=O)OC(C)(C)C)CC2)cc1,-10%,-13%
Cc1ccccc1-c1cc(C(=O)O)n(CC2CC(c3cccnc3)=NO2)n1 (stereo not given),-8%,i
Cc1nnc(SCC2=C(C(=O)O)N3C(=O)C(NC(=O)Cn4nc(C(F)F)cc4C)C3SC2)s1 (stereo not given),-6%,-26%
O=C(Cc1ccccc1)NCc1nc2ccccc2[nH]1,-13%,i
O=C(NCc1ccccn1)C1CCN(S(=O)(=O)c2cc(Cl)ccc2Cl)CC1,-7%,-18%
CNS(=O)(=O)c1cccc(C(=O)OCC(=O)N(CCC#N)c2ccccc2)c1,-5%,-3%
O=c1[nH]cnc2scc(-c3cccs3)c12,-16%,.
COc1ccc(CCN2CC(C(=O)N(C)CC(=O)Nc3cccc(F)c3)CC2=O)cc1OC (stereo not given),-6%,-7%
O=C(CSc1nnc(-c2ccccc2)n1Cc1ccco1)NCc1ccc2c(c1)OCO2,-22%,.
CN(C)c1ccc(/C=C/c2ccnc3ccccc23)c(N)c1,-14%,-24%
Cc1ccccc1-n1c(C)nc2ccsc2c1=O,-23%,-14%
CC(=O)Nc1ccc(NC(=O)[C@@H](NC(=O)N2C[C@H]3C[C@@H](C2)c2cccc(=O)n2C3)C(C)C)cc1,6%,8%
COc1ccc(OC)c(C2NC(=S)NC3=C2N2CCC3CC2)c1 (stereo not given),-16%,-12%
COC(=O)c1c(NC(=O)c2cc3nc(-c4ccc(Br)cc4)cc(C(F)(F)F)n3n2)sc2c1CCCC2,-14%,-9%
Cc1cccc(Cn2c(=O)n(Cc3ccc(C(=O)NC4CCN(Cc5ccccc5)CC4)cc3)c(=O)c3ccccc32)c1,?,?
CCOc1ccc(C(=O)N/N=C(/C)C2C(=O)c3ccccc3C2=O)cc1,-7%,i
CCN(CC)S(=O)(=O)c1ccc(C)c(NC(=O)CN(C)C)c1,-14%,0%
CCCCOc1ccc(C2CCC(C(C)=O)C(C)C2)cc1 (stereo not given),-10%,20%
CCOc1ccc(S(=O)(=O)N2CCc3ccccc3C2)cc1,-18%,-11%[1.46 µM]
COC(=O)C1=CNC=C(C(=O)OC)C1c1cccc(OC)c1,0%,i
COc1ccc(OC)c(NC(=O)CSc2nc(=O)n(CCN3CCOCC3)c3c2CCC3)c1,-25%,-1%
CSCCC1NC(=O)N(C(C)C(=O)Nc2cc(Cl)cc(Cl)c2)C1=O (stereo not given),-4%,0%
Cc1cc(C)n2nc(CNC(=O)c3cccc(N(C)C)c3)nc2n1,-6%,-7%
CCCc1cc(=O)oc2c(C)c(O[C@@H]3O[C@H](CO)[C@@H](O)[C@H](O)[C@H]3O)ccc12,-16%,-25%
CCOc1ccc(NC(=O)c2c(NCc3cccnc3)sc3c2CCCC3)cc1,-8%,-3%
COc1ccc(OCCNC(=O)c2cccc(Oc3ccc(C(F)(F)F)cc3[N+](=O)[O-])c2)cc1,-26%,-12%
COC(=O)c1c(NC(=O)c2ccc([N+](=O)[O-])o2)sc2c1CCN(C(C)C)C2,14µM*,?
Nc1c(N(C(=O)Nc2ccc(Cl)c(Cl)c2)C2CCCC2)c(=O)[nH]c(=O)n1Cc1ccccc1,-7%,-23%
CCOC(=O)c1oc2ccc(S(=O)(=O)Nc3ccc4c(c3)n(C)c(=O)n4C)cc2c1C,0%,i
CC(C)CCC(CCN1CCCC1)c1ccc2c(c1)OCO2 (stereo not given),-11%,-45%
CC12C=CC(=O)C=C1CC(O)C1C2CCC2(C)C1CCC2(C)O (stereo not given),8%,-6%
COc1ccc(S(N)(=O)=O)cc1C(=O)OCC(=O)Nc1sccc1C#N,1%,-13%
CN(Cc1ccccc1)C(=O)c1ccc(Nc2nc(C(N)COCc3ccccc3)cs2)nc1 (stereo not given),-26%,-28%
COC(=O)C1=C(O)/C(=C\c2cc(C)n(-c3ccccc3F)c2C)N=C1C,11%,-15%
O=C(NCCSc1ccc(Cl)cc1)c1ccc(CN2CCOCC2)cc1,-19%,-15%

# Next part.
SMILES,Vaccinia Venus,VACV mCherry inh
Cc1ccc(-n2nc(C)c3c2OC(N)=C(C#N)C3c2ccccc2F)cc1 (stereo not given),-5%,.
COC(=O)[C@@H]1CCCN1C(=O)c1c(OC)cc(=O)n2c1CCN(Cc1ccc3nsnc3c1)CC2,-7%,-10%
Cc1cccc(OCC(=O)Nc2ccc(C(=O)Nc3ccccc3C(=O)O)cc2)c1,-12%,i
CCCCNC(=O)Nc1nc2ccccc2s1,-15%,i
COc1cc(OC)cc(-c2sc3ccc(OC)cc3c2-c2ccc(OCCN3CCCCC3)cc2)c1,0%,-6%
C[C@@H]1CN([C@@H](C)CO)C(=O)Cc2cc(NC(=O)Nc3ccc(F)cc3)ccc2O[C@@H]1CN(C)Cc1ccc(Cl)c(Cl)c1,11µM*,?
CCc1cc(=O)oc2cc(OCC(=O)N3CCC(C(N)=O)CC3)ccc12,2%,-1%
COc1ccc(NC(=O)CSc2nc(O)cc(=O)[nH]2)c(OC)c1,-1%,-23%
O=C(CC(=O)c1c(F)cccc1Cl)c1ccccc1O,-11%,-6%
Cc1ccc(C(=O)NCCNC(=O)Cc2ccccc2)cn1,-6%,9%
COc1ccccc1NC(=S)NCCC(c1ccccc1)c1ccccc1,-13%,-7%
COc1cccc(NC(=O)CN2C(=O)c3ccccc3Sc3ncccc32)c1,-8%,-11%
O=C(COC(=O)c1ccccc1Cl)NCc1cccs1,-6%,-23%
COC(=O)C1=C(C)OC(N)=C(C#N)C1c1cc2cc(C)ccc2nc1Cl (stereo not given),-6%,i
O=C(Nc1ccccc1C(F)(F)F)C(O)(c1ccccc1)C1CCCCC1 (stereo not given),-13%,-7%
O=S(=O)(c1ccc(N=C2NN=C(c3cc(F)ccc3F)CS2)cc1)N1CCOCC1,-22%,?
O=C(c1cccc(N2CCCC2=O)c1)N1CCN(c2ccccc2)CC1,-3%,.
CCN(C(=O)c1cnc2scc(C)n2c1=O)c1ccccc1C,-12%,-26%
Cc1ccc(Cl)cc1N1CCN(S(=O)(=O)c2cnc[nH]2)CC1,-8%,-6%
Cc1ccc(S(=O)(=O)N2C[C@H]3[C@H]4C(=O)N(Cc5ccccc5)C(=O)[C@H]4CC(=O)[C@H]3[C@@H]2c2cccc3ccccc23)cc1,-6%,28%
CCc1cccc(C)c1NC(=S)NCCc1c(C)[nH]c2ccc(C)cc12,?,18µM*
CCn1c2ccccc2c2nnc(N3CCN(c4cc(C)ccc4C)CC3)nc21,-4%,-7%
CCOc1ccc(S(=O)(=O)Nc2c(C)n(C)n(-c3ccccc3)c2=O)cc1,-6%,-4%
CC1CCN(C(c2cccs2)c2nnnn2Cc2ccccc2)CC1 (stereo not given),-15%,-18%
CCOC(=O)c1[nH]c2ccc(F)cc2c1NC(=O)CN1CCN(C/C=C/c2ccccc2)CC1,?,.
CC(C)Sc1nnc([C@H](Cc2ccccc2)NC(=O)OC(C)(C)C)o1,-11%[7.34 µM],-14%[7.34 µM]
Cc1nc(Sc2nnnn2C)c2c3c(sc2n1)CCC3,?,.
COc1ccc(S(=O)(=O)Nc2ncccc2C)c2ccccc12,-12%,-5%
COCCn1c(C)cc(C(=O)COC(=O)c2[nH]c(C)c(C(C)=O)c2C)c1C,-13%,-5%
O=C(Cn1cc(C(F)(F)F)cc(Cl)c1=O)Nc1cccc(Cl)c1,-3%,-4%
O=C(Nc1ccccc1)C1=C[C@H](c2ccc(Br)cc2)C[C@H](OCc2ccc(CO)cc2)O1,-19%,-22%
Cc1ccc2c(=O)cc(C(=O)Nc3c(C(=O)c4ccc(F)cc4)oc4ccccc34)oc2c1C,0%,-6%
COc1ccccc1C(=O)N(Cc1nc(-c2cccc(C)c2)no1)C(C)C,5%,-5%
Cc1nn(CC(=O)N2CCc3ccccc3C2)c(C)c1[N+](=O)[O-],-1%,i
O=C(c1ccc(NS(=O)(=O)c2ccccc2)cc1)N1CCCCCC1,-13%,-24%
O=C(NC(C(=O)c1ccccc1)N1CCOCC1)c1ccccc1 (stereo not given),-16%,-23%
O=C(CC1(O)C(=O)Nc2ccccc21)c1ccccc1O (stereo not given),-19%,.
CCOc1ccc(NC(=O)N(C2CCCCCC2)C2CCN(C(C)=O)CC2)cc1,-1%,-21%
CC(Sc1ccccc1)C(=O)Nc1cccc(N(C)S(C)(=O)=O)c1 (stereo not given),-9%,-5%
COc1ccc(C(=O)NNC(=O)c2ccc3ccccc3c2)cc1,-9%,i
Cc1ccc(Nc2nc(C)cc(C)c2C#N)c(C)c1,-5%,-15%
Nc1nc(N)nc(-c2cc([N+](=O)[O-])ccc2O)n1,?,-10%
CCO[C@@H]1OC(C(=O)N2CCOCC2)=C[C@H](C)[C@H]1CCCO,4%,i

# Compounds shown so far containing fluorine, in the order listed:
SMILES,Vaccinia Venus,VACV mCherry inh
O=C(O)c1ccc(N2CC3CC(C2)c2cccc(=O)n2C3)c(NS(=O)(=O)c2cccc(C(F)(F)F)c2)c1 (stereo not given),-8%,i
Cc1nnc(SCC2=C(C(=O)O)N3C(=O)C(NC(=O)Cn4nc(C(F)F)cc4C)C3SC2)s1 (stereo not given),-6%,-26%
COc1ccc(CCN2CC(C(=O)N(C)CC(=O)Nc3cccc(F)c3)CC2=O)cc1OC (stereo not given),-6%,-7%
COC(=O)c1c(NC(=O)c2cc3nc(-c4ccc(Br)cc4)cc(C(F)(F)F)n3n2)sc2c1CCCC2,-14%,-9%
COc1ccc(OCCNC(=O)c2cccc(Oc3ccc(C(F)(F)F)cc3[N+](=O)[O-])c2)cc1,-26%,-12%
COC(=O)C1=C(O)/C(=C\c2cc(C)n(-c3ccccc3F)c2C)N=C1C,11%,-15%
Cc1ccc(-n2nc(C)c3c2OC(N)=C(C#N)C3c2ccccc2F)cc1 (stereo not given),-5%,.
C[C@@H]1CN([C@@H](C)CO)C(=O)Cc2cc(NC(=O)Nc3ccc(F)cc3)ccc2O[C@@H]1CN(C)Cc1ccc(Cl)c(Cl)c1,11µM*,?
O=C(CC(=O)c1c(F)cccc1Cl)c1ccccc1O,-11%,-6%
O=C(Nc1ccccc1C(F)(F)F)C(O)(c1ccccc1)C1CCCCC1 (stereo not given),-13%,-7%
O=S(=O)(c1ccc(N=C2NN=C(c3cc(F)ccc3F)CS2)cc1)N1CCOCC1,-22%,?
CCOC(=O)c1[nH]c2ccc(F)cc2c1NC(=O)CN1CCN(C/C=C/c2ccccc2)CC1,?,.
O=C(Cn1cc(C(F)(F)F)cc(Cl)c1=O)Nc1cccc(Cl)c1,-3%,-4%
Cc1ccc2c(=O)cc(C(=O)Nc3c(C(=O)c4ccc(F)cc4)oc4ccccc34)oc2c1C,0%,-6%
